AID923: qHTS Assay for Allosteric/Competitive Inhibitors of Caspase-1: Spectroscopic Profiling in AFC Spectral Region; compound fluorescence, AFC spectral region (405/520 nm); almost no hit is shown here; Potency, µM (top dose mostly 57.5 µM), for inactives: at the top dose fluorescence increase, actives largely listed as activators; 1.1% of 75,000 active; active = well fitted activation curve with a large enough effect;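 also: 0% is about no effect; scaled to a free AFC standard on each plate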
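Compound autofluorescence profiled at 405 nm ex/520 nm em during kinetic caspase 1 run (50 nM enzyme, 5 uM Ac-WEHD-AFC, HEPES pH 7.5, 10 mM DTT). Titration up to 57 uM; baseline from regression intercept, normalized to AFC standard curve.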
Starred values were filed as active, the others as inactive; & = joins results of further samples. Potency is read from the fitted curve at half-maximal effect. Not all compounds are listed, so the mix of outcomes need not match the whole.

SMILES | AID923
Cc1cc(OC(=O)N2CCCCC2)c(C(C)C)cc1[N+](C)(C)C | -3.3%
COC(=O)[C@]1(C)CC[C@@]2(C)CC[C@@]3(C)C4=CCc5c(cc(O)c(O)c5C)[C@]4(C)CC[C@@]3(C)C2C1 (stereo not given in full) | -1.7%
CC1CC[C@@]2(OC1)O[C@@H]1[C@@H](O)[C@H]3C4CC[C@H]5C[C@@H](O[C@@H]6O[C@H](CO)[C@H](O[C@@H]7O[C@H](CO)[C@@H](O)[C@H](O[C@@H]8OC[C@@H](O)[C@H](O)[C@H]8O)[C@H]7O[C@@H]7O[C@H](CO)[C@@H](O)[C@H](O[C@@H]8O[C@H](CO)[C@@H](O)[C@H](O)[C@H]8O)[C@H]7O)[C@H](O)[C@H]6O)[C@H](O)C[C@]5(C)C4CC[C@]3(C)[C@H]1[C@@H]2C (stereo not given in full) | -1.0%
COc1cc2c(cc1O)CCNC2C (stereo not given) | 0.4%
CC(C)(C#N)O[C@H]1OC(CO)C(O)C(O)C1O (stereo not given in full) | -3.0%
NC(=NCCCC(N)C(=O)O)N[N+](=O)[O-] (stereo not given) | 0.7%
CN1C[C@@H](CO)C=C2c3cccc4[nH]cc(c34)CC21 (stereo not given in full) | 6.9%
CNC(Cc1c[nH]c2ccccc12)C(=O)O (stereo not given) | 2.8%
CC1CC[C@@]2(NC1)OC1CC3C4CC[C@@H]5CC(O)CC[C@@]5(C)C4CC[C@]3(C)C1C2C (stereo not given in full) | 1.5%
CCc1ccc(C(=O)NN(C(=O)c2cc(C)cc(C)c2)C(C)(C)C)cc1 | -1.6%
O=C(NC(=O)c1c(F)cccc1F)Nc1ccc(Cl)cc1 | -0.5%
COc1c2c(cc3c1OCO3)CC[N+](C)=C2 | 1.2%
C=C(C)c1cc2cc(C(C)=O)c(O)cc2o1 | -5.1%
O=C(O)c1nn(Cc2ccc(Cl)c(Cl)c2)c2ccccc12 | -3.8%
N#C/C(=C\c1ccc(O)cc1)C(=O)O | -0.1%
CC[C@]1(O)CC(O[C@@H]2CC(N(C)C)C(O)C(C)O2)c2c(cc3c(c2O)C(=O)c2c(O)cccc2C3=O)C1C(=O)OC (stereo not given in full) | 9.1%
CC1(C)C(=O)C=C[C@@]2(C)C1CC(O)[C@]1(C)C2CC[C@@]2(C)C(c3ccoc3)OC(=O)C3O[C@]312 (stereo not given in full) | -1.4%
CC1CCC2C(C)C(=O)OC3OC4(C)CCC1C32OO4 (stereo not given) | -3.5%
C=C(C)C1Cc2c(ccc3c(=O)c4c(oc23)COc2cc(OC)c(OC)cc2-4)O1 (stereo not given) | 1.5%
CN1CCc2cc3c(cc2C1C1OC(=O)c2c1ccc1c2OCO1)OCO3 (stereo not given) | 2.5%
CC(C)c1cc2c(c(O)c1O)[C@]1(C(=O)O)CCCC(C)(C)C1CC2 (stereo not given in full) | -2.8%
CC1=CCCC2C1(C)CCC(C)C2(C)CC/C(C)=C/C[n+]1cn(C)c2c(N)ncnc21 (stereo not given) | 0.1%
CC(C)(C)NCC(O)c1cc(Cl)c(N)c(Cl)c1 (stereo not given) | -0.2%
CC(=O)OC1CC(OC(C)=O)[C@]2(C)C(CC(OC(C)=O)[C@]3(C)C2CC[C@@]2(C)C(c4ccoc4)C(=O)C4O[C@]432)C1(C)C (stereo not given in full) | 5.1%

Quoted from the listing.
AID923, N#C/C(=C\c1ccc(O)cc1)C(=O)O reads -0.1%
AID923, CC1CC[C@@]2(OC1)O[C@@H]1[C@@H](O)[C@H]3C4CC[C@H]5C[C@@H](O[C@@H]6O[C@H](CO)[C@H](O[C@@H]7O[C@H](CO)[C@@H](O)[C@H](O[C@@H]8OC[C@@H](O)[C@H](O)[C@H]8O)[C@H]7O[C@@H]7O[C@H](CO)[C@@H](O)[C@H](O[C@@H]8O[C@H](CO)[C@@H](O)[C@H](O)[C@H]8O)[C@H]7O)[C@H](O)[C@H]6O)[C@H](O)C[C@]5(C)C4CC[C@]3(C)[C@H]1[C@@H]2C (stereo not given in full) reads -1.0%
AID923, CN1C[C@@H](CO)C=C2c3cccc4[nH]cc(c34)CC21 (stereo not given in full) reads 6.9%
AID923, COC(=O)[C@]1(C)CC[C@@]2(C)CC[C@@]3(C)C4=CCc5c(cc(O)c(O)c5C)[C@]4(C)CC[C@@]3(C)C2C1 (stereo not given in full) reads -1.7%
AID923, CC1CC[C@@]2(NC1)OC1CC3C4CC[C@@H]5CC(O)CC[C@@]5(C)C4CC[C@]3(C)C1C2C (stereo not given in full) reads 1.5%

New compounds follow
SMILES | AID923
COC(=O)[C@H]1C[C@H]2CC[C@H](O)C[C@H]2N1CC1CC1 | -1.7%
N#CC(O[C@@H]1OC(COC2OC(CO)C(O)C(O)[C@@H]2O)C(O)C(O)C1O)c1ccccc1 (stereo not given in full) | 1.4%
CCCCCCC(C)(C)c1ccc([C@@H]2C[C@H](O)CC[C@@H]2CCCO)c(O)c1 | -5.6%
CC1C(=O)OC2O[C@]3(C)CC[C@H]4C(C)CCC1[C@]24OO3 (stereo not given in full) | -0.8%
C/C=C(\C)C(=O)OC1CC(OC(C)=O)[C@@]2(C(=O)OC)COC3C2[C@@]12CO[C@](O)(C(=O)OC)C2[C@](C)(C12OC1(C)C1CC2OC2OC=C[C@]21O)C3O (stereo not given in full) | -0.4%
CNc1ccccc1C(=O)O | -0.3%
CC1(C)C(O)CC(=O)[C@]2(C)C1CC(=O)[C@]1(C)C2CC[C@@]2(C)C(c3ccoc3)OC(=O)C3O[C@@]321 (stereo not given in full) | -1.6%
CNC(=O)Oc1cccc2c1OC(C)(C)C2 | -2.2%

5 entries from above, arranged by length of the SMILES, lowest first.
SMILES | AID923
CC(C)(C)NCC(O)c1cc(Cl)c(N)c(Cl)c1 (stereo not given) | -0.2%
O=C(NC(=O)c1c(F)cccc1F)Nc1ccc(Cl)cc1 | -0.5%
CCc1ccc(C(=O)NN(C(=O)c2cc(C)cc(C)c2)C(C)(C)C)cc1 | -1.6%
N#CC(O[C@@H]1OC(COC2OC(CO)C(O)C(O)[C@@H]2O)C(O)C(O)C1O)c1ccccc1 (stereo not given in full) | 1.4%
C/C=C(\C)C(=O)OC1CC(OC(C)=O)[C@@]2(C(=O)OC)COC3C2[C@@]12CO[C@](O)(C(=O)OC)C2[C@](C)(C12OC1(C)C1CC2OC2OC=C[C@]21O)C3O (stereo not given in full) | -0.4%

(further entries)
SMILES | AID923
CC(C)CCCC1(C)C=Cc2c(O)c3c(c(CCC(C)C)c2O1)OC12C(CC4CC1C(C)(C)OC2(CCC(C)C(=O)O)C4O)C3=O (stereo not given) | 1.8%
COC(C)C(O)(C(=O)OC1=CCN2CC[C@H](O)[C@H]12)C(C)C (stereo not given in full) | -0.5%
COc1cc2occc2c2oc(=O)ccc12 | -0.2%
CC1CC(O)[C@]2(O)[C@]13CC(=O)OC[C@@]2(C)[C@@](C)(O)C(=O)C3 (stereo not given in full) | -1.1%
COc1cc2c(cc1O)C(CCc1ccc(Cl)cc1)N(C)CC2 (stereo not given) | -1.8%
CC(=O)Oc1c2c(c(CC=C(C)C)c3c1C(=O)C1=CC4CC5C(C)(C)OC(C/C=C(\C)C(=O)O)(C4=O)[C@]15O3)OC(C)(CCC=C(C)C)C=C2 (stereo not given in full) | 3.9%
Oc1ccc2c3c1OC1C(O)CC[C@]4(O)C(C2)N(CC2CCC2)CC[C@]314 (stereo not given in full) | 3.3%
C#CCOS(=O)OC1CCCCC1Oc1ccc(C(C)(C)C)cc1 (stereo not given) | -1.8%
CC(CO)NC(=O)C1C=C2c3cccc4[nH]cc(c34)C[C@H]2N(C)C1 (stereo not given in full) | -3.5%
COC(=O)[C@]1(C)CC[C@@]2(C)CC[C@@]3(C)C4=CC=C5C(=CC(=O)C(O)=C5C)[C@@]4(C)CC[C@@]3(C)C2C1 (stereo not given in full) | -1.5%
CC(=O)OC1C[C@@]2(C)C(c3ccoc3)C[C@H]3O[C@@]32[C@@]2(C)C(=O)C(O)=C3C(C)(C)C(=O)C=C[C@]3(C)C12 (stereo not given in full) | 2.5%
NC1(C(=O)O)CCCC1 | -0.1%
COc1c2c(cc3c1OCO3)C13C=CC(OC)CC1N(C2)CC3O (stereo not given) | -2.9%
O=c1cccc2n1CC1CNCC2C1 (stereo not given) | 3.1%&3.5%
CN[C@@H]1C[C@H](c2ccc(Cl)c(Cl)c2)c2ccccc21 | 0.1%
CC(C)(O)[C@@H]1C2OC(=O)[C@@H]1[C@]1(O)C[C@H]3O[C@]34C(=O)O[C@H]2[C@]14C | 3.1%

Other results follow.
compound	AID923
CC(C)=CC1C(C(=O)OCc2cccc(Oc3ccccc3)c2)C1(C)C (stereo not given)	0.6%
O=C(O)COc1cc(Cl)c(Cl)cc1Cl	2.6%
CN(C)C1C(=O)C(C(N)=O)=C(O)[C@@]2(O)C(=O)C3=C(O)c4c(O)cccc4[C@@](C)(O)C3CC12 (stereo not given in full)	6.8%
C=C1C([C@@]2(C)C(OC(C)=O)CC(=O)O[C@@](C)(COC(C)=O)C2CC(=O)OC)C(OC=O)C(OC(=O)C(OC(C)=O)C(C)CC)[C@]2(C)C(c3ccoc3)CC(=O)C12O (stereo not given in full)	-0.5%
COc1cc2c(cc1OC)[C@@H]1C(=O)c3ccc(O)c(CC=C(C)C)c3OC1CO2 (stereo not given in full)	-0.9%
CNC1[C@@H](O)C(OC2C(N)C[C@H](N)[C@@H](O[C@@H]3OC(C(C)O)C(O)C(O)C3N)C2O)OC[C@]1(C)O (stereo not given in full)	-0.6%
CC(C)(c1ccc(OC[C@@H]2CO2)cc1)c1ccc(OC[C@H]2CO2)cc1	-2.3%
CN(C)C(=O)Oc1cc(OC(=O)N(C)C)cc(C(O)CNC(C)(C)C)c1 (stereo not given)	-1.6%
CCN1C[C@@]2(OC(=O)c3ccccc3NC(C)=O)CCC(OC)[C@@]34C5CC6C(OC)C[C@@](O)(C(CC23)[C@@H]14)C5(O)C6OC (stereo not given in full)	-1.3%
O=CN1CC2CC(C1)c1cccc(=O)n1C2 (stereo not given)	1.7%
COc1ccc(CC2NCC(O)C2OC(C)=O)cc1 (stereo not given)	-2.8%
CC1/C=C/C=C/CC/C=C/C=C/C=C/C=C/C(OC2OC(C)C(O)C(N)C2O)CC2O[C@](O)(CC(O)C(O)CCC(O)CC(O)CC(O)CC(=O)OC(C)C(C)C1O)CC(O)C2C(=O)O (stereo not given in full)	0.3%
CC(=O)Nc1ccc(S(=O)(=O)NC(CC(=O)N2CCC3(CC2)OCCO3)C(C)C)cc1 (stereo not given)	0.1%
CN1CC[C@@]2(C)c3cc(O)ccc3N(C)[C@@H]12	1.4%
CC1C(=O)OC2C1CC[C@@]1(C)C=CC(=O)[C@@]3(C)O[C@@]213 (stereo not given in full)	-2.0%
CCCC(C)C1(CC)C(=O)N=C(S)NC1=O (stereo not given)	1.6%
COc1cc2ccc(=O)oc2c2ccoc12	0.8%
COP(N)(=O)SC (stereo not given)	-0.7%
CNC(=O)Oc1ccccc1OC(C)C	-0.9%

Screens from PubChem.
